Compound activity (PubChem BioAssay)
PABP FP inh: PABP-poly(A) binding inhibition; P11940; PABP-poly(A) RNA binding, fluorescence polarization; inhibition, % at 35 µM; actives 1% (n = 290,000);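 active means 50% or more with normal probe brightness, or confirmed in later tests; inconclusive means above 50% with abnormal brightness, or retests that disagree; inactive means below 50% or failed in later tests; about a fifth of its hits are not listed in these tables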;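 further: calls also rest on retests at 20 µM and on dose response follow-up; controls were probe without protein and protein plus probe with vehicle; some compounds called inactive have numbers as strong as hits; many hits fall short of the cut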
Target sequence (P11940 whole entry, looked up): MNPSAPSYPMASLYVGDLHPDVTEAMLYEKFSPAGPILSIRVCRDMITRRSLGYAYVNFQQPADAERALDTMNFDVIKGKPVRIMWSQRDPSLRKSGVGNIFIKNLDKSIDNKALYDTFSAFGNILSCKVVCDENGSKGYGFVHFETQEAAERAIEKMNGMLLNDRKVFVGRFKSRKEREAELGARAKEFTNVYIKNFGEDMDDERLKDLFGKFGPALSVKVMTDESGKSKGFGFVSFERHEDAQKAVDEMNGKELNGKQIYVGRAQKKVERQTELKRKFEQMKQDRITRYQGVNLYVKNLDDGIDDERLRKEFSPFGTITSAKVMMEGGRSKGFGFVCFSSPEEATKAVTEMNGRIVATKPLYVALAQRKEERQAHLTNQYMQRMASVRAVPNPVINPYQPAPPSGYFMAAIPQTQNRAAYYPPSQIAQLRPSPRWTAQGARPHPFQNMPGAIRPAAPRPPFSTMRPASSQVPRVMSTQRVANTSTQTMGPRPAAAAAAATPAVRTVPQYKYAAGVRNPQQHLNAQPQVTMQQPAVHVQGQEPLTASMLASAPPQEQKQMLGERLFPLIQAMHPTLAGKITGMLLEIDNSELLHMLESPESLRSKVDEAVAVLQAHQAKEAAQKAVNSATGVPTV
UUG fidelity: yeast start codon fidelity modulation; activity score, % at 18.7 µM; actives 0.13% (n = 350,000); S. cerevisiae UUG-firefly luciferase reporter, luminescence/redox ratio; AID 602363;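 active means replicate mean at a twofold rise or more, about +100% in these data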;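 further: firefly luciferase made from a UUG start codon reports start codon fidelity; reporter light over untreated wells divided by growth signal over untreated wells; some hits fall short of that in this replicate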
Env fusion inh: HIV envelope-mediated fusion inhibition | actives 1.1% (n = 360,000) | HeLa-JRFL Env/CEM21 cell fusion, luciferase | AID 651610 | inhibition, % at 12.3 µM;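 active means mean replicate inhibition score of at least 50 and every replicate individually at or above 50; inconclusive means only one of the two criteria met; inactive means mean below 50 and not all replicates reaching 50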;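 further: 0% = plate neutral controls and 100% = maraviroc near 300 nM; one replicate is shown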
CSC inhib: blocks cancer stem cells | cancer stem cell-like cells viability, luminescence | inhibition, % at 7.5 µM | actives 1.1% (n = 300,000);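 active means mean at 75% or more and at least half the replicates too; inconclusive means mean and replicates disagree; tested in HMLE shEcad cells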;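 further: 0% = median of negative and 100% = median of positive control wells; the first replicate is given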
MT1-MMP act inh: inhibitors of human MT1-MMP activation; GFP/RFP ratio change, % at 20 µM; HT1080 RFP-PRO-GFP cells, GFP/RFP ratio fluorescence, overnight; percent of plate control window, DMSO zero; AID 651647; P50281; actives 0.061% (n = 360,000);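 active means GFP/RFP ratio change of at least 30% with cell ATP level not reduced by more than half and red fluorescence within 50% of control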; further: strong numbers were not always called active
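Read-out: GFP/RFP fluorescence ratio; Test system: RFP-PRO-GFP reporter HT1080 cells; Compound dosing: single-point 20 µM compound, 1% DMSO; Times: overnight compound exposure at 37 °C.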
eIF4H FP inh: inhibitors of RNA binding by human eIF4H. inhibition, % at 35 µM. AID 2012. actives 0.94% (n = 290,000). Q15056. eIF4H fluorescence polarization binding assay;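 active means 50% or more with normal probe brightness, or confirmed in later tests; inconclusive means above 50% with abnormal brightness, or retests that disagree; inactive means below 50% or failed in later tests; about a fifth of its hits are not listed in these tables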;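 further: calls also rest on retests at 20 µM and on dose response follow-up; 0% = protein and probe with vehicle and 100% = probe without protein; strong numbers were not always called active; many hits fall short of the cut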
Rce1 inh: yeast Ras-converting enzyme inhibition; yeast membranes, quenched prenylated peptide cleavage fluorescence; calls only; actives 0.27% (n = 290,000); AID 2563;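 active means fall in fluorescence gain of 50% or more versus controls, with final raw signal at or below 3038400; inconclusive means same 50% fall but final raw signal above 3038400; inactive means fall in fluorescence gain under 50%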;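 further: plate controls were neutral control wells for no effect and wells lacking membranes for full effect; tested at 10 µM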
MT1-MMP act inh RFP: second read-out of MT1-MMP act inh, no call of its own (marks repeat the call); RFP signal change, %; measured here: RFP expression control read;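 0 = vehicle wells; hits needed this value within 50% of zero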
Active calls of the source: *; i = inactive; ? = inconclusive; . = not tested or not shown. A portion of the library (hit frequency here may not be typical).

(1) CC(=O)c1ccc(N(CC(=O)NC2CCS(=O)(=O)C2)S(=O)(=O)c2ccc(C)cc2)cc1 (stereo not given)
(2) Cc1onc(-c2ccccc2Cl)c1C(=O)NC1CCS(=O)(=O)C1 (stereo not given)
(3) CCOc1cc(CNCC(C)C)cc(Cl)c1OCc1ccccc1
(4) COc1cccc(NC(=O)Cn2cc(C=O)c3ccccc32)c1
(5) NC(=O)CSC1=Nc2ccccc2C2=NC(CC(=O)NCc3cccs3)C(=O)N12 (stereo not given)
(6) CCOC(=O)C1CCN(Cc2nc3ccc(Cl)cc3n2CCO)CC1
(7) CCCCCn1c(=S)[nH]c2cc(C(=O)N3CCCC3)ccc2c1=O
(8) CCOC(=O)c1ccc2[nH]c3c(c2c1)CCCC3NC=O (stereo not given)
compound no.	1	2	3	4	5	6	7	8
PABP FP inh	.	15	-3	-8	1	8	7	-7
UUG fidelity	-2	5	.	-1	.	-14	-12	10
Env fusion inh	.	-4	18	41	-10	-32	15	6
CSC inhib	-17	-11	.	32	-16	-7	-20	-13
MT1-MMP act inh	2	-1	-2	1	4	0	6	1
MT1-MMP act inh RFP	4	5	-2	-16	4	3	-5	-1
eIF4H FP inh	.	0	4	-3	-16	9	1	-9
Rce1 inh	.	i	i	i	i	i	i	i

(9) O=C1[C@@H](Oc2ccccc2)[C@@H](c2ccccc2)N1c1ccccc1
(10) CNC(=O)C1C(=S)NC(N)=C(C#N)C1c1ccccc1 (stereo not given)
(11) CCOC(=O)c1ccc(NC(=S)N2CCC(C(N)=O)(N3CCCCC3)CC2)cc1
(12) COC(=O)CNC(c1ccccc1)c1cc(C)ccc1NS(=O)(=O)c1ccc(C)cc1 (stereo not given)
(13) Cc1cc(C(=O)C[N+]2(C)CCOCC2)c(C)n1-c1ccc(Br)cc1
(14) Cc1ccc(COc2ccc(-c3nnco3)cc2)cc1
(15) O=C(CN1C(=O)c2ccccc2C1=O)Nc1ccc(-c2nc3ccccc3o2)cc1
(16) CC1=C/C(=N\Nc2ccccc2[N+](=O)[O-])CC(C)(C)C1
compound no.	9	10	11	12	13	14	15	16
PABP FP inh	.	-3	-9	-2	1	-4	-2	-2
UUG fidelity	2	8	.	.	.	-27	6	-8
Env fusion inh	-27	-1	5	0	6	-41	.	1
CSC inhib	.	112*	-14	-4	-8	3	-16	-7
MT1-MMP act inh	4	1	-1	1	3	-2	2	10
MT1-MMP act inh RFP	1	4	-9	2	4	0	8	2
eIF4H FP inh	.	-2	1	9	-5	-5	0	2
Rce1 inh	.	i	i	i	i	i	i	i

(17) CC(C)CCN(C(=O)c1ccccn1)c1c(N)n(Cc2ccccc2)c(=O)[nH]c1=O
(18) COc1ccc(S(=O)(=O)N2CCc3ccccc32)cc1C(=O)OCc1c(C)noc1C
(19) CC(=O)Nc1ccc(-c2csc(N/N=C\c3ccncc3)n2)cc1
(20) O=C(OC1CCOC1=O)c1ccc(Cl)c(S(=O)(=O)N2CCOCC2)c1 (stereo not given)
(21) COc1ccc(OC)c(C(=O)NC(CC(N)=O)c2ccc(N3CCC(N4CCCC4)CC3)c([N+](=O)[O-])c2)c1 (stereo not given)
(22) COc1ccc(/C=N/NC(=O)c2ccc(C)cc2)cc1CN1CCN(c2ccc(F)cc2)CC1
(23) Cc1ccc(S(=O)(=O)c2nc(Nc3ccccc3)sc2Cl)cc1
(24) c1ccc(-n2nnnc2-n2nnc3ccccc32)cc1
compound no.	17	18	19	20	21	22	23	24
PABP FP inh	.	0	8	.	-5	0	-9	4
UUG fidelity	-14	-22	-12	6	-3	7	.	-4
Env fusion inh	2	11	12	6	-13	.	7	-132
CSC inhib	0	6	-2	-2	-9	-2	.	-1
MT1-MMP act inh	-8	-1	3	-2	0	2	-9	1
MT1-MMP act inh RFP	-1	-5	-9	-2	2	3	-22	1
eIF4H FP inh	.	1	2	.	1	6	-14	-5
Rce1 inh	.	i	i	.	i	i	i	i

(25) CC(C)C[C@H]1CNC(=S)N1C[C@H]1CCCN1C[C@H](Cc1ccc(O)cc1)N1C[C@H](Cc2ccccc2)N(CC2CCCCC2)C1=S
(26) CC(C)(C)C(=O)/C(C#N)=C/c1cccs1
(27) Cc1noc(C)c1-c1nc(CS(=O)(=O)c2ccc(F)cc2)no1
(28) Cc1noc(C)c1CSCC(=O)OCC(=O)N1CC(=O)Nc2ccccc21
(29) Cc1cc2c(=O)oc(-c3ccc(F)cc3)nc2s1
(30) CSc1nc(S(=O)(=O)c2ccc(C)cc2)c(Cl)s1
(31) Cc1cc(N2CCOCC2)nc2ccc(NC(=O)CCC(=O)N3CCN(c4cccc(C(F)(F)F)c4)CC3)cc12
(32) CC(=O)Nc1cc(-c2cccc(C(=O)NCCN(C)C)c2)cn2c(-c3ccc(C(C)=O)cc3)cnc12
compound no.	25	26	27	28	29	30	31	32
PABP FP inh	.	1	0	6	0	-4	18	.
UUG fidelity	-17	.	-11	-20	-17	.	-13	-7
Env fusion inh	112*	9	-1	-32	8	8	4	4
CSC inhib	.	-8	-8	0	5	-10	31	.
MT1-MMP act inh	-3	3	-1	-1	1	2	4	5
MT1-MMP act inh RFP	-3	4	3	4	2	0	-9	3
eIF4H FP inh	.	-10	-6	-11	-3	-4	2	.
Rce1 inh	.	i	i	i	i	i	i	.

A different layout for some results above:
entry	SMILES	PABP FP inh	UUG fidelity	Env fusion inh	CSC inhib	MT1-MMP act inh	MT1-MMP act inh RFP	eIF4H FP inh	Rce1 inh
25	CC(C)C[C@H]1CNC(=S)N1C[C@H]1CCCN1C[C@H](Cc1ccc(O)cc1)N1C[C@H](Cc2ccccc2)N(CC2CCCCC2)C1=S	.	-17	112*	.	-3	-3	.	.
26	CC(C)(C)C(=O)/C(C#N)=C/c1cccs1	1	.	9	-8	3	4	-10	i
27	Cc1noc(C)c1-c1nc(CS(=O)(=O)c2ccc(F)cc2)no1	0	-11	-1	-8	-1	3	-6	i
28	Cc1noc(C)c1CSCC(=O)OCC(=O)N1CC(=O)Nc2ccccc21	6	-20	-32	0	-1	4	-11	i
29	Cc1cc2c(=O)oc(-c3ccc(F)cc3)nc2s1	0	-17	8	5	1	2	-3	i

Other compounds follow:
(33) Cc1ccc2c(c1)NC(=O)C(CC(=O)NCc1ccc(F)cc1)O2 (stereo not given)
(34) CC(C)Cn1cc(C(=O)NCc2cccs2)c2c3ccccc3n(C)c2c1=O
(35) O=C(CN(C(=O)c1csnn1)c1cccc(F)c1)NC1CCCC1
(36) CC(NC(=O)CNC(=O)C1CCCCC1)c1ccc(S(N)(=O)=O)cc1 (stereo not given)
(37) CN(CC(=O)Nc1cccc(Cl)c1)C1=NS(=O)(=O)c2ccccc21
(38) CCc1nn(C(C)C(=O)N2CC(C)CC(C)C2)c(=O)c2cc3occc3n12 (stereo not given)
(39) COc1cccc(OC)c1-c1nnc(-c2cn(C)c3ccccc23)o1
(40) CCN(CC)S(=O)(=O)c1cccc(C(=O)NC2CCCCC2)c1
compound no.	33	34	35	36	37	38	39	40
PABP FP inh	-2	4	-3	-2	.	-6	-8	-8
UUG fidelity	-10	-7	46	-14	-17	.	-15	3
Env fusion inh	-4	-5	-14	3	10	-11	-94	.
CSC inhib	-22	0	5	0	-25	-1	-4	-4
MT1-MMP act inh	4	-2	-1	8	3	0	-4	1
MT1-MMP act inh RFP	5	-6	1	10	-5	5	-2	-5
eIF4H FP inh	0	2	1	-6	.	-3	-4	-3
Rce1 inh	i	i	i	i	.	i	i	i

From entry 35 as far as 40, as listed above:
(35) O=C(CN(C(=O)c1csnn1)c1cccc(F)c1)NC1CCCC1
(36) CC(NC(=O)CNC(=O)C1CCCCC1)c1ccc(S(N)(=O)=O)cc1 (stereo not given)
(37) CN(CC(=O)Nc1cccc(Cl)c1)C1=NS(=O)(=O)c2ccccc21
(38) CCc1nn(C(C)C(=O)N2CC(C)CC(C)C2)c(=O)c2cc3occc3n12 (stereo not given)
(39) COc1cccc(OC)c1-c1nnc(-c2cn(C)c3ccccc23)o1
(40) CCN(CC)S(=O)(=O)c1cccc(C(=O)NC2CCCCC2)c1
compound no.	35	36	37	38	39	40
PABP FP inh	-3	-2	.	-6	-8	-8
UUG fidelity	46	-14	-17	.	-15	3
Env fusion inh	-14	3	10	-11	-94	.
CSC inhib	5	0	-25	-1	-4	-4
MT1-MMP act inh	-1	8	3	0	-4	1
MT1-MMP act inh RFP	1	10	-5	5	-2	-5
eIF4H FP inh	1	-6	.	-3	-4	-3
Rce1 inh	i	i	.	i	i	i

The results go on.
(41) COc1ccc(OC)c2[nH]c(=O)c(CCNC(=O)c3ccc(S(=O)(=O)N4CCCCC4)cc3)cc12
(42) CCC1(c2ccccc2)NC(=O)N(C)C1=O (stereo not given)
(43) O=C1CC(C(=O)N2CCC(N3CCC(C(=O)NC4CC4)CC3)CC2)c2ccccc21 (stereo not given)
(44) OC(CNc1nc(-c2cccnc2)nc2ccccc12)c1ccccc1 (stereo not given)
(45) CCCCNC(=O)c1ccccc1NC(=O)CN(c1ccccc1)S(=O)(=O)N(C)C
(46) O=c1c2cc(NC(=S)N3CCCCC3)ccc2nc2n1CCCCC2
(47) Cc1ccc(/C=C/S(=O)(=O)NCC(=O)OCC(=O)N2CC(=O)Nc3ccccc32)cc1
(48) CC(C)C(NS(=O)(=O)c1cccc2nsnc12)C(=O)NCc1ccco1 (stereo not given)
compound no.	41	42	43	44	45	46	47	48
PABP FP inh	1	.	5	-16	-2	?	-5	11
UUG fidelity	.	-12	.	0	.	-27	-9	0
Env fusion inh	.	0	7	9	-18	20	1	6
CSC inhib	2	0	-7	-9	15	-7	-6	-11
MT1-MMP act inh	3	3	-1	-6	-5	4	-2	0
MT1-MMP act inh RFP	-8	4	8	-1	-1	0	1	2
eIF4H FP inh	-2	.	4	2	7	-4	-6	-8
Rce1 inh	i	.	i	i	i	.	i	i

(49) O=C(/C=C/[C@H]1O[C@@H](n2ccc(=O)[nH]c2=O)[C@H](O)[C@@H]1O)NCc1ccccn1
(50) Cc1cc2[nH]c(=O)c(=O)[nH]c2cc1S(=O)(=O)N1CCN(c2cccc(C)c2C)CC1
(51) COc1cc(/C=N/NC(=O)CNC(=O)c2cccs2)ccc1O
(52) O=C1CC2(CCN(C(=O)c3ccc(F)cc3)CC2)Oc2ccccc21
(53) CN(C)NC(=O)c1ccsc1NC(=O)c1ccc(S(=O)(=O)N(C)C)cc1
(54) CC(C)CCN1CCN(Cc2cccs2)CC1CCO (stereo not given)
(55) O=C(CS(=O)CC(=O)N(CC(=O)NC1CCCC1)c1ccccc1F)Nc1ccc(F)cc1 (stereo not given)
(56) CC(=O)Nc1ccc(C(=O)OCC(=O)NC(=O)NC(C)(C)C)cc1
compound no.	49	50	51	52	53	54	55	56
PABP FP inh	.	0	-11	.	2	-13	11	-11
UUG fidelity	-7	12	-16	-16	-7	-13	2	-12
Env fusion inh	-44	21	13	30	.	-2	-4	-29
CSC inhib	.	.	-12	-4	1	-4	-17	-13
MT1-MMP act inh	1	0	3	-3	3	1	0	-5
MT1-MMP act inh RFP	4	-7	8	-3	2	1	1	-4
eIF4H FP inh	.	15	0	.	-4	-2	0	-16
Rce1 inh	.	i	i	i	i	i	i	i
